RN4220 kill: S. aureus RN4220 growth inhibition. OD600, 16 h. inhibition, % (test concentration not listed). hit rate 0.33% among 330,000. AID 1259311;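 active = z-score of -3 or lower and OD600 up to 0.18 on both plates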;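 also: plate controls were untreated cells for no effect and reference antibiotic for full effect; stock transfer was 100 nL into about 80 µL; one replicate is shown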
Mtb hypoxia inh: reduces hypoxia-regulated biosensor signal in M. tuberculosis | fluorescence inhibition, % (test concentration not listed) | hit rate 0.1% among 300,000 | M. tuberculosis hypoxia-regulated fluorescent reporter, fluorescence;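 active = 35 to 45% if threefold the growth effect, above 45% if 1.5-fold the growth effect; inactive = the rest, general growth blockers included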;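 also: wells of about 50 µL received 100 nL stock; 0% = vehicle wells and 100% = reference inhibitor wells; whole bacteria with a GFP reporter of the hypoxia response; strong numbers were not always called active; many hits fall short of the cut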
ugtP null kill: compounds lethal to S. aureus RN4220 ugtP deletion mutant | OD600 growth, 16 h; some inactives read as strong as hits | growth inhibition, % (test concentration not listed) | hit rate 0.54% among 330,000;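 active = z-score under -3 and OD600 up to 0.15 on both plates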;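 also: plate controls were untreated wells for no effect and antibiotic for full effect; wells of about 80 µL received 100 nL stock; the first replicate is given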
PrP 5UTR inh: suppresses PrP 5' UTR mRNA reporter expression | cell-based PrP 5' UTR mRNA reporter, plate reader | inhibition, % (no concentration beside the values) | hit rate 0.35% among 340,000 | AID 488862;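 active = every replicate at 50% or more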;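 also: 0 = median of the neutral control wells; tested in H4 reporter cells; numbers are from one replicate; inactives centre near -14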
Bead autofluor: counter-screen for toxin protease inhibitors: compound fluorescence. compound autofluorescence counterscreen, microsphere flow cytometry; active compounds read high. fluorescence intensity (no concentration beside the values). hit rate 3.1% among 360,000. AID 624483;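 active = at least 3 SD above the mean of all compounds, about 16000 in these data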;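 also: 100 nL of 1 mM stock went into each well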
BJeLR viability: BJeLR cell viability loss. BJeLR (HRASV12) viability, CellTiter-Glo ATP luminescence, 48 h; reference of the scale not given here. inhibition, % (no concentration beside the values). hit rate 0.17% among 300,000;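 active = replicate mean above 50%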;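 also: 50 nL library stock added to about 25 µL; numbers are from one replicate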
Mtb hypoxia inh growth: second read-out of Mtb hypoxia inh, no call of its own (marks repeat the call); growth inhibition, %; measured here: M. tuberculosis growth (absorbance);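 0% = vehicle and 100% = reference antibiotic; read after six days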
The depositor's hits bear a star; & = joins results of further samples.

What do the screens show for `O=C(Nc1ccccc1C(=O)O)c1cccc(N2C(=O)c3ccccc3C2=O)c1`?
RN4220 kill: 3.0; Mtb hypoxia inh: 0; ugtP null kill: 13; PrP 5UTR inh: -16; Bead autofluor: 3549; BJeLR viability: -6; Mtb hypoxia inh growth: 6

What do the screens show for `O=S(=O)(NC1CC1)c1ccc2c3c(cccc13)CC2`?
RN4220 kill: 3.6; Mtb hypoxia inh: 14; ugtP null kill: 1; PrP 5UTR inh: -19; Bead autofluor: 4733; BJeLR viability: -2; Mtb hypoxia inh growth: 3

How did COc1ccc(C2Nc3ccccc3C(=O)N2Cc2ccccc2)cc1 (configuration not stated) do in these assays?
RN4220 kill: -2.5; Mtb hypoxia inh: 11; ugtP null kill: 14; PrP 5UTR inh: -15; Bead autofluor: 3437; BJeLR viability: -5; Mtb hypoxia inh growth: 11

What do the screens show for `O=C(N/N=C/c1cc(Br)cs1)c1ccccc1[N+](=O)[O-]`?
PrP 5UTR inh: -26; Bead autofluor: 2349; BJeLR viability: 2

How did Clc1cccc(N2CCN(Cc3ccc(Br)o3)CC2)c1 do in these assays?
RN4220 kill: 9.9; Mtb hypoxia inh: 6; ugtP null kill: 10; PrP 5UTR inh: -13; Bead autofluor: 4204; BJeLR viability: 4; Mtb hypoxia inh growth: 16

Results for Cc1cccc(C)c1NC(=O)CNC(=O)c1c(C)nn(-c2ccccc2)c1Cl ?
RN4220 kill: 4.0; Mtb hypoxia inh: 7; ugtP null kill: 7; PrP 5UTR inh: 2; Bead autofluor: 5567; BJeLR viability: -6; Mtb hypoxia inh growth: 11

How did CCOc1cc(NC(=O)c2cccs2)c(OCC)cc1NC(=O)c1cccnc1 do in these assays?
RN4220 kill: 22; Mtb hypoxia inh: 7; ugtP null kill: 2; PrP 5UTR inh: -17; Bead autofluor: 3194; BJeLR viability: -2; Mtb hypoxia inh growth: 3

How did CCOc1cc(N2CCOCC2)c(OCC)cc1NC(=O)c1cc(S(=O)(=O)N2CCOCC2)ccc1C do in these assays?
RN4220 kill: 0.7; Mtb hypoxia inh: 6; ugtP null kill: -2; PrP 5UTR inh: -25; Bead autofluor: 4095; Mtb hypoxia inh growth: 5

What do the screens show for `O=c1[nH]cccc1-c1nc2ccccc2[nH]1`?
RN4220 kill: -1.9; Mtb hypoxia inh: 7; ugtP null kill: 8; Bead autofluor: 3777; BJeLR viability: 9; Mtb hypoxia inh growth: 0

Results for COc1ccc(C2C(C(C)=O)=C(O)C(=O)N2CCc2c[nH]c3ccccc23)cc1 (configuration not stated) ?
RN4220 kill: -0.5; Mtb hypoxia inh: -5; ugtP null kill: -8; PrP 5UTR inh: -11; Bead autofluor: 2602; BJeLR viability: 4; Mtb hypoxia inh growth: -4

What do the screens show for `CC1CCCCC1NC(=O)C1CCN(S(=O)(=O)c2ccc(-n3cnnn3)cc2)CC1` (configuration not stated)?
RN4220 kill: 3.7; Mtb hypoxia inh: 5; ugtP null kill: 12; PrP 5UTR inh: -27; Bead autofluor: 7604; BJeLR viability: 10; Mtb hypoxia inh growth: 1

How did CCN1C(=O)[C@H]2[C@H]3CN=C(SCc4ccccc4)N3[C@@](CC)(C(=O)OC)[C@H]2C1=O do in these assays?
RN4220 kill: 3.1; Mtb hypoxia inh: -4; ugtP null kill: -2; PrP 5UTR inh: -5; Bead autofluor: 3878; Mtb hypoxia inh growth: 1

Results for O=C(CSc1nnc(-c2ccc(Cl)s2)o1)N1CCCc2ccccc21 ?
RN4220 kill: 8.1; ugtP null kill: 6; PrP 5UTR inh: -18; Bead autofluor: 4844

What do the screens show for `COC(=O)C1=COC(C)C2CN3CC[C@@]4(C(=O)Nc5ccccc54)C3CC12` (some centres not stated)?
RN4220 kill: 6.3; Mtb hypoxia inh: 9; ugtP null kill: 4; Mtb hypoxia inh growth: 10

How did CCOc1cc(/C=C\c2nc(O)c([N+](=O)[O-])c(=O)[nH]2)ccc1OC(C)CC (configuration not stated) do in these assays?
RN4220 kill: 3.6; Mtb hypoxia inh: 10; ugtP null kill: 1; PrP 5UTR inh: -9; Bead autofluor: 3810; BJeLR viability: 4; Mtb hypoxia inh growth: 3

What do the screens show for `CCn1cc(CN(C)C(=O)/C=C/c2ccc([N+](=O)[O-])cc2)c(C)n1`?
RN4220 kill: -2.1; Mtb hypoxia inh: 4; ugtP null kill: 6; PrP 5UTR inh: -12; Bead autofluor: 7593; BJeLR viability: -2; Mtb hypoxia inh growth: 6

What do the screens show for `O=C(c1ccccc1)c1c(O)cc(-c2ccccc2)oc1=O`?
RN4220 kill: 8.4; Mtb hypoxia inh: 3; ugtP null kill: -1; PrP 5UTR inh: 5; Bead autofluor: 1989; BJeLR viability: -2; Mtb hypoxia inh growth: 7

Results for COc1cc(/C=C2\SC(=S)N(CCC(=O)Nc3ccc(O)cc3)C2=O)cc(OC)c1OC ?
RN4220 kill: 0.7; Mtb hypoxia inh: 1; ugtP null kill: 13; PrP 5UTR inh: -50; Bead autofluor: 3310; BJeLR viability: -12; Mtb hypoxia inh growth: 2

What do the screens show for `CCCn1c(N2CCN(CC(=O)c3c(C)n(C)c4ccc(OC)cc34)CC2)nc2c1c(=O)[nH]c(=O)n2C`?
RN4220 kill: 5.7; Mtb hypoxia inh: 5; ugtP null kill: 0; PrP 5UTR inh: -5; Bead autofluor: 3046; BJeLR viability: -4; Mtb hypoxia inh growth: 6

Results for COc1ccc(NC(=O)Nc2cc(C)ccc2F)cc1OC ?
RN4220 kill: 4.2; Mtb hypoxia inh: 3; ugtP null kill: -11; PrP 5UTR inh: -33; Bead autofluor: 2048; BJeLR viability: -7; Mtb hypoxia inh growth: 4

Entries listed so far that contain bromine (two):
What do the screens show for `O=C(N/N=C/c1cc(Br)cs1)c1ccccc1[N+](=O)[O-]`?
PrP 5UTR inh: -26; Bead autofluor: 2349; BJeLR viability: 2

How did Clc1cccc(N2CCN(Cc3ccc(Br)o3)CC2)c1 do in these assays?
RN4220 kill: 9.9; Mtb hypoxia inh: 6; ugtP null kill: 10; PrP 5UTR inh: -13; Bead autofluor: 4204; BJeLR viability: 4; Mtb hypoxia inh growth: 16

The list continues.
How did CCOc1ccc(NC(=O)C(C)Oc2ccc(C#N)cc2)cc1S(=O)(=O)N1CCCC1 (configuration not stated) do in these assays?
RN4220 kill: -0.1; Mtb hypoxia inh: 10; ugtP null kill: 2; PrP 5UTR inh: -1; Bead autofluor: 9126; Mtb hypoxia inh growth: -3

Results for N#C/C(=C/c1ccccc1[N+](=O)[O-])C(=O)NCc1ccco1 ?
RN4220 kill: 1.8; Mtb hypoxia inh: 8; ugtP null kill: -8; PrP 5UTR inh: -14; Bead autofluor: 10964; BJeLR viability: 4; Mtb hypoxia inh growth: 2

What do the screens show for `COc1ccccc1NC(=O)CN1CCN(CC(=O)Nc2ccc(OC)c(OC)c2)CC1`?
RN4220 kill: 1.7; Mtb hypoxia inh: -9; ugtP null kill: 6; PrP 5UTR inh: -13; Bead autofluor: 4118; BJeLR viability: 3; Mtb hypoxia inh growth: 8

What do the screens show for `CCNc1nc(N)nc(Oc2ccc(OCCOc3ccccc3)nn2)n1`?
RN4220 kill: 2.8; Mtb hypoxia inh: 9; ugtP null kill: 5; PrP 5UTR inh: -12; Bead autofluor: 17908*; BJeLR viability: 3; Mtb hypoxia inh growth: 8

Results for COc1ccccc1C(=O)Nc1nnc(-c2ccc3c(c2)CCCC3)o1 ?
RN4220 kill: 0.7; Mtb hypoxia inh: 3; ugtP null kill: -1; PrP 5UTR inh: -9; Bead autofluor: 5676; BJeLR viability: 4; Mtb hypoxia inh growth: 15

What do the screens show for `NC(Cc1ccc(Oc2ccc(O)cc2)cc1)C(=O)O` (configuration not stated)?
RN4220 kill: 4.2; Mtb hypoxia inh: -2; ugtP null kill: -5; BJeLR viability: -8; Mtb hypoxia inh growth: 4

Results for O=C(CNCc1ccccn1)Nc1cc(C(F)(F)F)ccc1N1CCOCC1 ?
RN4220 kill: 9.2; Mtb hypoxia inh: 1; ugtP null kill: 6; PrP 5UTR inh: -28; Bead autofluor: 3741; BJeLR viability: 1; Mtb hypoxia inh growth: 4

How did COc1cccc(NC(=O)Cn2c(CCC(=O)O)ccc2-c2ccc(C)cc2)c1 do in these assays?
RN4220 kill: 5.1; Mtb hypoxia inh: 22; ugtP null kill: 1; PrP 5UTR inh: -12; Bead autofluor: 4311; Mtb hypoxia inh growth: -6

How did C[N+]1(C)CCc2cc3c(cc2[C@H]1[C@@H]1OC(=O)c2c1ccc1c2OCO1)OCO3 do in these assays?
PrP 5UTR inh: -1&-23&-7; Bead autofluor: 4640&5986; BJeLR viability: 1&1

How did COCCCNCCC(CCC(C)C)c1ccc2c(c1)OCO2 (configuration not stated) do in these assays?
RN4220 kill: 1.5; Mtb hypoxia inh: -7; ugtP null kill: -6; BJeLR viability: 1; Mtb hypoxia inh growth: 1

How did O=C(CN(C(=O)c1csnn1)c1ccc(F)cc1)NCCc1ccccc1 do in these assays?
RN4220 kill: 2.1; Mtb hypoxia inh: 7; ugtP null kill: 1; PrP 5UTR inh: -20; Bead autofluor: 5056; BJeLR viability: -7; Mtb hypoxia inh growth: 9

How did CCn1c(SCC(=O)N/N=C/c2ccc(O)c(OC)c2)nc2ccccc21 do in these assays?
PrP 5UTR inh: -9; Bead autofluor: 2281; BJeLR viability: 3

Results for N#C/C(=C/c1cc[nH]c1)C(N)=S ?
RN4220 kill: 11; Mtb hypoxia inh: 0; ugtP null kill: 7; PrP 5UTR inh: -8; Bead autofluor: 4196; BJeLR viability: 12; Mtb hypoxia inh growth: -4

How did Cc1ccc(NC(=O)COc2nc(C)cs2)cc1 do in these assays?
RN4220 kill: 4.5; Mtb hypoxia inh: 8; ugtP null kill: 6; PrP 5UTR inh: -13; Bead autofluor: 16659*; BJeLR viability: 10; Mtb hypoxia inh growth: 5

How did CCC(CC)N1CCN(Cc2nc3ccccc3c(=O)n2-c2ccc(F)cc2)CC1 do in these assays?
RN4220 kill: 5.6; Mtb hypoxia inh: 18; ugtP null kill: 11; PrP 5UTR inh: -7; Bead autofluor: 3911; BJeLR viability: 2; Mtb hypoxia inh growth: 3

What do the screens show for `O=C(COC(=O)CSc1ccccc1)NCCNC(=O)COC(=O)CSc1ccccc1`?
RN4220 kill: 3.4; Mtb hypoxia inh: 5; ugtP null kill: 5; PrP 5UTR inh: -9; Bead autofluor: 6547; BJeLR viability: 3; Mtb hypoxia inh growth: 0

How did COC(=O)C1=C(C)NC(=O)CC1c1ccccc1OC (configuration not stated) do in these assays?
RN4220 kill: 8.4; Mtb hypoxia inh: -1; ugtP null kill: 7; PrP 5UTR inh: -7; Bead autofluor: 3332; BJeLR viability: 2; Mtb hypoxia inh growth: 3

What do the screens show for `CCOC(=O)CSc1nc2ccc(N3CCOCC3)cc2c(=O)n1Cc1ccccc1`?
RN4220 kill: 3.3; Mtb hypoxia inh: 7; ugtP null kill: 2; PrP 5UTR inh: -7; Bead autofluor: 9107; BJeLR viability: -7; Mtb hypoxia inh growth: 3

What do the screens show for `CC(=O)Nc1ccc(C=NN2C(C)CCCC2C)cc1` (configuration not stated)?
RN4220 kill: 1.3; Mtb hypoxia inh: 2; ugtP null kill: 15; Mtb hypoxia inh growth: 7

Results for Cc1ccccc1-n1nc2c(c1NC(=O)c1c(-c3ccccc3Cl)noc1C)CS(=O)(=O)C2 ?
RN4220 kill: 5.5; Mtb hypoxia inh: 8; ugtP null kill: 3; PrP 5UTR inh: -14; Bead autofluor: 16862*; BJeLR viability: -9; Mtb hypoxia inh growth: 8

How did O=C(CO)C(O)C(O)C(O)CO (configuration not stated) do in these assays?
RN4220 kill: 1.5; Mtb hypoxia inh: -5; ugtP null kill: -5; PrP 5UTR inh: -30; Bead autofluor: 8707; Mtb hypoxia inh growth: -2

Part of the list above in order of SMILES length, descending:
Results for Cc1ccccc1-n1nc2c(c1NC(=O)c1c(-c3ccccc3Cl)noc1C)CS(=O)(=O)C2 ?
RN4220 kill: 5.5; Mtb hypoxia inh: 8; ugtP null kill: 3; PrP 5UTR inh: -14; Bead autofluor: 16862*; BJeLR viability: -9; Mtb hypoxia inh growth: 8

How did CCC(CC)N1CCN(Cc2nc3ccccc3c(=O)n2-c2ccc(F)cc2)CC1 do in these assays?
RN4220 kill: 5.6; Mtb hypoxia inh: 18; ugtP null kill: 11; PrP 5UTR inh: -7; Bead autofluor: 3911; BJeLR viability: 2; Mtb hypoxia inh growth: 3

Results for O=C(CNCc1ccccn1)Nc1cc(C(F)(F)F)ccc1N1CCOCC1 ?
RN4220 kill: 9.2; Mtb hypoxia inh: 1; ugtP null kill: 6; PrP 5UTR inh: -28; Bead autofluor: 3741; BJeLR viability: 1; Mtb hypoxia inh growth: 4
